# Source: PubChem
# A1 apoptosis 2 – A1 inhibitors via caspase activation, primary screen, cell-based, luminescence, HTS, two replicates; MEF A1-2A-BIM cells, caspase-Glo luminescence, 3 h; percent of clofoctol response, DMSO zero; 24,000 tested, under 10 active; caspase activation, % (concentration not given with the values); in the data active = caspase activation above about 5.9%;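 also: wells of about 30 µL received 50 nL stock; the first replicate is given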
#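 Material: A1-2A-BIM-expressing MEF cells. Buffer or medium: RPMI-1640 plus 10% FBS. Incubation: cells settled overnight, compound exposure 3 h at 37 °C, 5% CO2. Signal: Caspase-Glo 3/7 luminescence, 1 h at room temperature.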
# Numbers without * were called inactive.
item | molecule | A1 apoptosis 2
1 | COc1ccc(NC(=O)Nc2cccc3c2O[C@@H](CN(C)Cc2ccncc2)[C@@H](C)CN([C@H](C)CO)C3=O)cc1 | 0.1
2 | COc1ccc(S(=O)(=O)N(C)C[C@H]2Oc3ccc(NS(=O)(=O)c4cccs4)cc3CC(=O)N([C@H](C)CO)C[C@H]2C)cc1 | -1.3
3 | COc1ccc(NC(=O)Nc2cccc3c2O[C@H](CN(C)S(=O)(=O)c2ccc(Cl)cc2)[C@H](C)CN([C@@H](C)CO)C3=O)cc1 | 0.8
4 | C[C@H](CO)N1C[C@H](C)[C@@H](CN(C)Cc2ccc(-c3ccccc3)cc2)Oc2ccc(NC(=O)C3CC3)cc2CC1=O | -0.2
5 | C[C@@H]1CN([C@H](C)CO)C(=O)c2cc(NC(=O)C3CC3)ccc2O[C@H]1CN(C)S(=O)(=O)c1cccs1 | 0.0
6 | COc1ccc(CN(C)C[C@@H]2Oc3c(NC(=O)NC4CCCCC4)cccc3C(=O)N([C@H](C)CO)C[C@@H]2C)cc1 | -0.2
7 | C[C@H](CO)N1C[C@H](C)[C@H](CN(C)C(=O)CCCN(C)C)OCCCC[C@H](C)Oc2ccc(NS(C)(=O)=O)cc2C1=O | -1.4
8 | COc1ccc(S(=O)(=O)Nc2ccc3c(c2)C(=O)N([C@H](C)CO)C[C@H](C)[C@@H](CN(C)C(=O)Nc2ccc(C(F)(F)F)cc2)O3)cc1 | -0.6
9 | C[C@H](CO)N1C[C@H](C)[C@@H](CN(C)CC2CCCCC2)Oc2ccc(NC(=O)Nc3ccc(F)cc3)cc2CC1=O | -0.3
10 | CNC[C@@H]1Oc2ccc(NC(=O)NC(C)C)cc2CC(=O)N([C@H](C)CO)C[C@H]1C | -0.1
11 | C[C@@H]1CN([C@@H](C)CO)C(=O)Cc2cc(NC(=O)CCCN(C)C)ccc2O[C@H]1CN(C)C(=O)Nc1ccccc1 | 0.1
12 | C[C@H]1CCCCO[C@@H](CN(C)C(=O)C2CCCCC2)[C@@H](C)CN([C@@H](C)CO)C(=O)c2cc(NS(=O)(=O)c3cccs3)ccc2O1 | 0.3
13 | C[C@@H]1CCCCO[C@@H](CN(C)C(=O)Cc2ccccc2)[C@H](C)CN([C@H](C)CO)C(=O)c2cc(NC(=O)NC3CCCCC3)ccc2O1 | 1.6
14 | C[C@H]1CCCCO[C@H](CN(C)C)[C@@H](C)CN([C@@H](C)CO)C(=O)c2cc(NC(=O)Nc3cccc4ccccc34)ccc2O1 | -0.5
15 | Cc1ccc(S(=O)(=O)Nc2ccc3c(c2)C(=O)N([C@H](C)CO)C[C@@H](C)[C@@H](CN(C)C)O3)cc1 | 1.6
16 | COc1ccc(NC(=O)Nc2ccc3c(c2)CC(=O)N([C@@H](C)CO)C[C@H](C)[C@H](CN(C)S(=O)(=O)c2c(C)noc2C)O3)cc1 | 0.9
17 | C[C@@H]1CN([C@@H](C)CO)C(=O)c2cccc(N(C)C)c2O[C@H]1CN(C)Cc1ccc(C(F)(F)F)cc1 | -0.5
18 | COc1ccc(NC(=O)N(C)C[C@H]2Oc3ccc(NC(=O)Nc4c(C)noc4C)cc3CC(=O)N([C@@H](C)CO)C[C@@H]2C)cc1 | 0.2
19 | Cc1noc(C)c1S(=O)(=O)Nc1ccc2c(c1)C(=O)N([C@@H](C)CO)C[C@H](C)[C@@H](CN(C)C(=O)Nc1ccc(F)cc1)OCCCC[C@H](C)O2 | -0.7
20 | C[C@H]1CN([C@@H](C)CO)C(=O)c2cc(NC(=O)C3CCCCC3)ccc2O[C@@H]1CN(C)Cc1ccc2c(c1)OCO2 | -0.5
21 | C[C@@H]1CN([C@H](C)CO)C(=O)c2cc(NS(=O)(=O)c3ccc(F)cc3)ccc2O[C@@H](C)CCCCO[C@H]1CN(C)Cc1ccc2c(c1)OCO2 | 0.1
22 | C[C@@H]1CN([C@H](C)CO)C(=O)c2cc(NC(=O)c3ccncc3)ccc2O[C@@H](C)CCCCO[C@@H]1CN(C)CC1CC1 | -1.1
23 | CC(C)NC(=O)N(C)C[C@H]1Oc2ccc(NS(=O)(=O)c3ccccc3)cc2C(=O)N([C@@H](C)CO)C[C@@H]1C | -0.8
24 | COc1ccc(S(=O)(=O)Nc2cccc3c2O[C@H](CN(C)S(=O)(=O)c2ccc(Cl)cc2)[C@@H](C)CN([C@H](C)CO)C3=O)cc1 | 1.7
25 | COc1ccc(S(=O)(=O)N(C)C[C@@H]2Oc3ccc(NC(=O)C4CC4)cc3C(=O)N([C@H](C)CO)C[C@H]2C)cc1 | 0.8
26 | CCCN(C)C[C@H]1OCCCC[C@@H](C)Oc2ccc(NC(=O)CCCN(C)C)cc2C(=O)N([C@@H](C)CO)C[C@H]1C | -0.2
27 | CC(C)NC(=O)N(C)C[C@H]1OCCCC[C@@H](C)Oc2ccc(NC(=O)c3ccncc3)cc2C(=O)N([C@@H](C)CO)C[C@@H]1C | -0.8
28 | C[C@@H]1CN([C@H](C)CO)C(=O)c2cccc(NS(=O)(=O)c3cccs3)c2O[C@@H]1CN(C)Cc1ccc2c(c1)OCO2 | -2.1
29 | O=C(CCCCCCC(=O)Nc1ccccc1O)N/N=C/c1ccc(Br)o1 | -0.9
30 | C[C@H](CO)N1C[C@H](C)[C@H](CN(C)C)Oc2c(NC(=O)Nc3ccc(F)cc3)cccc2C1=O | -0.2
31 | C[C@@H]1CN([C@@H](C)CO)C(=O)c2cc(NC(=O)C3CC3)ccc2O[C@@H]1CN(C)C(=O)Nc1ccc2c(c1)OCO2 | -0.8
32 | Cc1ccc(S(=O)(=O)N(C)C[C@@H]2OCCCC[C@H](C)Oc3ccc(NC(=O)Nc4ccc(F)cc4)cc3C(=O)N([C@H](C)CO)C[C@H]2C)cc1 | 0.3
33 | Cc1ccc(S(=O)(=O)Nc2ccc3c(c2)C(=O)N([C@H](C)CO)C[C@H](C)[C@@H](CN(C)S(=O)(=O)c2ccccc2)OCCCC[C@H](C)O3)cc1 | -1.1
34 | C[C@@H]1CN([C@@H](C)CO)C(=O)c2cc(NC(=O)Nc3ccc(F)cc3)ccc2O[C@@H](C)CCCCO[C@H]1CN(C)S(=O)(=O)c1cn(C)cn1 | -1.1
35 | CC(C)NC(=O)Nc1ccc2c(c1)CC(=O)N([C@H](C)CO)C[C@@H](C)[C@@H](CN(C)CC1CCCCC1)O2 | 0.3
36 | C[C@@H]1CN([C@@H](C)CO)C(=O)Cc2cc(NS(C)(=O)=O)ccc2O[C@@H]1CN(C)Cc1ccc(Cl)c(Cl)c1 | -2.0
37 | C[C@H](CO)N1C[C@H](C)[C@H](CN(C)S(=O)(=O)c2ccccc2)OCCCC[C@H](C)Oc2ccc(NC(=O)CCCN(C)C)cc2C1=O | -0.7
38 | C[C@@H]1CCCCO[C@H](CN(C)S(=O)(=O)c2ccccc2)[C@H](C)CN([C@@H](C)CO)C(=O)c2cc(NS(C)(=O)=O)ccc2O1 | 0.8
39 | C[C@@H]1CN([C@H](C)CO)C(=O)CCCn2cc(nn2)CO[C@@H]1CN(C)C(=O)c1ccccc1 | -0.5
40 | C[C@H](CO)N1C[C@H](C)[C@H](CN(C)S(=O)(=O)c2ccc(Cl)cc2)OCCCC[C@H](C)Oc2ccc(NS(=O)(=O)c3cn(C)cn3)cc2C1=O | -1.0
41 | COc1ccc(CN(C)C[C@H]2Oc3ccc(NS(=O)(=O)c4cccs4)cc3CC(=O)N([C@H](C)CO)C[C@@H]2C)cc1 | -0.4
42 | CC(C)NC(=O)N(C)C[C@H]1OCCCC[C@H](C)Oc2ccc(NC(=O)Nc3ccc(F)cc3)cc2C(=O)N([C@H](C)CO)C[C@@H]1C | 0.3
43 | C[C@@H]1CN([C@@H](C)CO)C(=O)Cc2cc(NS(=O)(=O)c3ccccc3)ccc2O[C@@H]1CN(C)S(=O)(=O)c1ccc(Cl)cc1 | 0.3
44 | C[C@@H]1CN([C@@H](C)CO)C(=O)c2cc(NC(=O)Cc3ccccc3)ccc2O[C@@H]1CN(C)Cc1ccccc1 | -1.2
45 | C[C@@H]1CN([C@H](C)CO)C(=O)Cc2cc(NC(=O)Cc3cn(C)c4ccccc34)ccc2O[C@@H]1CN(C)Cc1ccc2c(c1)OCO2 | 0.8

# A different layout for part of the listing above:
39) C[C@@H]1CN([C@H](C)CO)C(=O)CCCn2cc(nn2)CO[C@@H]1CN(C)C(=O)c1ccccc1
  A1 apoptosis 2: -0.5

34) C[C@@H]1CN([C@@H](C)CO)C(=O)c2cc(NC(=O)Nc3ccc(F)cc3)ccc2O[C@@H](C)CCCCO[C@H]1CN(C)S(=O)(=O)c1cn(C)cn1
  A1 apoptosis 2: -1.1

45) C[C@@H]1CN([C@H](C)CO)C(=O)Cc2cc(NC(=O)Cc3cn(C)c4ccccc34)ccc2O[C@@H]1CN(C)Cc1ccc2c(c1)OCO2
  A1 apoptosis 2: 0.8

41) COc1ccc(CN(C)C[C@H]2Oc3ccc(NS(=O)(=O)c4cccs4)cc3CC(=O)N([C@H](C)CO)C[C@@H]2C)cc1
  A1 apoptosis 2: -0.4

# Additional compounds follow:
item | molecule | A1 apoptosis 2
46 | C=CCN1Cc2ccccc2[C@@H]2OC(c3ccc(OCCCO)cc3)=N[C@]2(CC=C)C1=O | 0.0
47 | C[C@@H]1CN([C@H](C)CO)C(=O)CCCn2nncc2CO[C@H]1CN(C)S(=O)(=O)c1cccc(F)c1 | -0.1
48 | C[C@H]1CN([C@@H](C)CO)C(=O)c2cccc(NC(=O)c3cnccn3)c2O[C@@H]1CN(C)C | -0.2
49 | CC(C)NC(=O)N(C)C[C@H]1OCCCC[C@H](C)Oc2ccc(NC(=O)Nc3ccc4c(c3)OCO4)cc2C(=O)N([C@@H](C)CO)C[C@H]1C | -1.0
50 | C[C@@H]1CN([C@H](C)CO)C(=O)Cc2cc(NC(=O)Nc3ccc4c(c3)OCO4)ccc2O[C@@H]1CN(C)S(=O)(=O)c1cccs1 | 0.7
51 | C[C@@H]1CCCCO[C@H](CN(C)C(=O)Nc2ccccc2)[C@H](C)CN([C@@H](C)CO)C(=O)c2cc(NC(=O)CCCN(C)C)ccc2O1 | -0.5
52 | O=C(CCCCC(=O)N/N=C/c1ccc2ccccc2c1)NO | -0.1
53 | C[C@@H]1CN([C@@H](C)CO)C(=O)Cc2cc(NC(=O)CCC(F)(F)F)ccc2O[C@H]1CN(C)CC1CCCCC1 | 0.7
54 | C[C@@H]1CN([C@@H](C)CO)C(=O)Cc2cc(NS(=O)(=O)c3ccc(Cl)cc3)ccc2O[C@@H]1CN(C)S(C)(=O)=O | 1.0
55 | CC(C)NC(=O)Nc1ccc2c(c1)C(=O)N([C@H](C)CO)C[C@H](C)[C@H](CN(C)C(=O)NC(C)C)OCCCC[C@@H](C)O2 | -0.2
56 | C[C@H](CO)N1C[C@H](C)[C@H](CN(C)S(=O)(=O)c2ccccc2)Oc2ncc(C#Cc3cccc(F)c3)cc2C1=O | -0.2
57 | C[C@@H]1CCCCO[C@H](CN(C)CC2CCCCC2)[C@H](C)CN([C@@H](C)CO)C(=O)c2cc(NC(=O)NC3CCCCC3)ccc2O1 | -0.2
58 | COC(=O)C(CC#Cc1ccc2c(c1)[C@]1(C(=O)N2)[C@H](c2ccc(OCCO)cc2)N2[C@H](c3ccccc3)[C@H](c3ccccc3)OC(=O)[C@H]2[C@@H]1C(=O)N1CCCCCCC1)C(=O)OC | -0.3
59 | C[C@@H]1CN([C@H](C)CO)C(=O)c2cc(NC(=O)C3CC3)ccc2O[C@@H]1CN(C)C(=O)Nc1ccccc1 | -0.4
60 | COc1ccc(NC(=O)N(C)C[C@H]2OCCCC[C@H](C)Oc3ccc(NS(=O)(=O)c4cn(C)cn4)cc3C(=O)N([C@@H](C)CO)C[C@@H]2C)cc1 | 0.1

# Values by screen from the list.
# Entries 35–46 in A1 apoptosis 2: 0.3, -2.0, -0.7, 0.8, -0.5, -1.0, -0.4, 0.3, 0.3, -1.2, 0.8, 0.0

# Other records
item | molecule | A1 apoptosis 2
61 | Cc1ccc(S(=O)(=O)N(C)C[C@H]2Oc3ccc(NC(=O)Nc4c(C)noc4C)cc3CC(=O)N([C@@H](C)CO)C[C@@H]2C)cc1 | -0.9
62 | C[C@@H]1CN([C@H](C)CO)C(=O)c2cc(NC(=O)Nc3ccc(C(F)(F)F)cc3)ccc2O[C@@H]1CN(C)C | -0.8
63 | C[C@@H]1CN([C@@H](C)CO)C(=O)c2cc(NC(=O)CCN3CCOCC3)ccc2O[C@H]1CN(C)Cc1ccc(Oc2ccccc2)cc1 | -0.6
64 | O=C(C1=C[C@@H](c2coc3ccccc3c2=O)C[C@@H](OCCCCO)O1)N1CCOCC1 | 0.6
65 | Cc1noc(C)c1NC(=O)Nc1ccc2c(c1)C(=O)N([C@H](C)CO)C[C@@H](C)[C@H](CN(C)C)OCCCC[C@H](C)O2 | -1.6
66 | C[C@H](CO)N1C[C@H](C)[C@@H](CN(C)Cc2ccc(C(F)(F)F)cc2)Oc2ccc(NS(=O)(=O)c3cccs3)cc2C1=O | -0.8
67 | C=C(C)[C@@H]1CC=C(/C=N/NC(=O)c2ccccc2O)CC1 | -7.5
68 | Cc1noc(C)c1NC(=O)N(C)C[C@@H]1Oc2ccc(NC(=O)Nc3ccc4c(c3)OCO4)cc2C(=O)N([C@@H](C)CO)C[C@@H]1C | 1.4
69 | C[C@@H]1CN([C@@H](C)CO)C(=O)c2cc(NS(=O)(=O)c3ccc(Cl)cc3)ccc2O[C@@H](C)CCCCO[C@H]1CN(C)S(=O)(=O)c1cn(C)cn1 | -0.6
70 | C[C@H](CO)N1C[C@H](C)[C@@H](CN(C)Cc2ccncc2)Oc2c(NC(=O)c3ccncc3)cccc2C1=O | -0.6
71 | CCCN(C)C[C@H]1OCCCC[C@H](C)Oc2ccc(N(C)C)cc2C(=O)N([C@H](C)CO)C[C@H]1C | -0.1
72 | C[C@H]1CN([C@@H](C)CO)C(=O)Cc2cc(NS(=O)(=O)c3ccc(Cl)cc3)ccc2O[C@H]1CN(C)Cc1ccc(C(F)(F)F)cc1 | -0.8

# These rows are one share of the data, so the mix of outcomes need not match the whole.
